KCNQ2 inh – KCNQ2 channel blockers in CHO-K1 cells – cell-based, FluxOR thallium flux, B-score, primary screen (AID 2156); 20 min; stronger effect = lower value; only compounds with negative scores are shown here; some inactives read as strong as hits; B-score at 10 µM; 310,000 tested, 1.1% active;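 active means fluorescence ratio B-score at most minus 3 library SDs, with starting brightness B-score within 2 library SDs, cut at about -5.5 in these data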
Target sequence (O88943 whole entry, looked up): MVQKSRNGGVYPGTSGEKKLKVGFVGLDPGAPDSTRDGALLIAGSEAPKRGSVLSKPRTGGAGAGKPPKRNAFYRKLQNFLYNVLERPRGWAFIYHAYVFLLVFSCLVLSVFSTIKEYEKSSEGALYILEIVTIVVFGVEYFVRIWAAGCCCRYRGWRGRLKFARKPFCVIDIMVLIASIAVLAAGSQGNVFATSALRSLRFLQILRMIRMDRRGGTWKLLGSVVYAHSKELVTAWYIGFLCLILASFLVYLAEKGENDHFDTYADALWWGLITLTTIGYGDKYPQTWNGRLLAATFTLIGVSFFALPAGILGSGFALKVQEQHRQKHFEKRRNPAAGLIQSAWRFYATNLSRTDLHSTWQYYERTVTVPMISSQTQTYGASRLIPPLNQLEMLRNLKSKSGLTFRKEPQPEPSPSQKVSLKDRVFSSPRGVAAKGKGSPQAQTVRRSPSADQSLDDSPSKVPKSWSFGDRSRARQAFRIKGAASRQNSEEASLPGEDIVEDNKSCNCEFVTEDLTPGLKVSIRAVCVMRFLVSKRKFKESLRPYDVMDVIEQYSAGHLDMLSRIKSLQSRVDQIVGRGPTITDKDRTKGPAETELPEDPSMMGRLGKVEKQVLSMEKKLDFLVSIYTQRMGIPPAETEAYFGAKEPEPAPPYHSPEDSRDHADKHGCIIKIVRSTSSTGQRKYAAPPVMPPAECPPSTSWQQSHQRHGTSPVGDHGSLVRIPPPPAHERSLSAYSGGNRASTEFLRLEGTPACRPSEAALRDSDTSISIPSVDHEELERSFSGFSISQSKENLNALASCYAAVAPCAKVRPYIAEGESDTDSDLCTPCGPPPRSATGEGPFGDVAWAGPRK
KCNQ2 inh baseline – second read-out of KCNQ2 inh, no call of its own (marks repeat the call); B-score; measured here: initial fluorescence intensity artifact check;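 brightness before thallium and not channel activity; 0 = typical well and far values either way flag optical interference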
Starred values were filed as active, the others as inactive; i = inactive. This is a subset; the hit share may differ from the screen's.

molecule	KCNQ2 inh baseline	KCNQ2 inh
Cn1ccnc1SCC(=O)Nc1cccc(O)c1	-2.48	i
Nc1nnc(SCC(=O)Nc2cccnc2Cl)s1	-0.68	i
COc1ccc(NC(=O)CC2C(=O)N(c3ccc(OC)cc3)C(=O)N2CCN2CCN(C)CC2)cc1 (configuration not stated)	-1.63	i
NS(=O)(=O)c1ccc(NC(=O)COc2ccc(C(=O)c3ccc(F)cc3)cc2)cc1	-2.3	i
Cc1cc2nc(SCCOC(=O)Nc3cccc(Cl)c3)nc(C)c2cc1C	-1.13	i
CC(=O)Nc1ccc(-c2nc3ccccc3o2)cc1	0.39	i
COc1cccc(/C=N/Nc2ccc([N+](=O)[O-])cn2)c1O	0.58	i
COCCNC(=O)CSc1cc(-c2ccccc2)c2ccc(OC)cc2n1	1.43	i
CCNc1nc(NCC)n2c(SC(C(=O)Nc3cc(C)ccc3C)c3ccccc3)nnc2n1 (configuration not stated)	-1.2	i
CC1(C)c2ccccc2N2CCC(=O)NC21/C=C/c1ccco1 (configuration not stated)	1.41	i
O=C(NCCc1ccc(Cl)cc1)c1cccc(N2CCCC2=O)c1	0.29	i
Cc1ccc(S(=O)(=O)N(Cc2ccccc2Cl)C(=O)N2CCN(C)CC2)cc1	0.36	i
CC(=O)c1cccc(NC(=O)NC2CCCCCCC2)c1	-0.54	i
Cc1ccc(NC(=O)C(NC2CCCc3ccccc32)c2ccccc2)c([N+](=O)[O-])c1 (configuration not stated)	1.01	i
Cc1cc(C)c2c(N)c(C(=O)Nc3ccc(C)c(C)c3)sc2n1	-1.43	i
O=C(NNC(=S)Nc1ccccc1Cl)c1ccccc1Cl	0.01	i
COC(=O)c1ccc(CSc2ccc3nnc(-c4ccc(F)cc4)n3n2)o1	1.48	i
C=CCOC(=O)CCC(=O)Nc1cc(OC)nc(OC)n1	-2.91	i
COc1ccc(C(=O)NC(=S)NCCO)cc1Br	-2.23	i
O=S(=O)(c1ccc2nc(-c3ccco3)c(-c3ccco3)nc2c1)N1CCOCC1	-0.62	i

Profiles, looked up by structure.
`O=C(NCCc1ccc(Cl)cc1)c1cccc(N2CCCC2=O)c1` as listed: KCNQ2 inh baseline: 0.29; KCNQ2 inh: i
`O=S(=O)(c1ccc2nc(-c3ccco3)c(-c3ccco3)nc2c1)N1CCOCC1` as listed: KCNQ2 inh baseline: -0.62; KCNQ2 inh: i

Returning to the listing with the 5 entries that preceded the break.
molecule	KCNQ2 inh baseline	KCNQ2 inh
O=C(NNC(=S)Nc1ccccc1Cl)c1ccccc1Cl	0.01	i
COC(=O)c1ccc(CSc2ccc3nnc(-c4ccc(F)cc4)n3n2)o1	1.48	i
C=CCOC(=O)CCC(=O)Nc1cc(OC)nc(OC)n1	-2.91	i
COc1ccc(C(=O)NC(=S)NCCO)cc1Br	-2.23	i
O=S(=O)(c1ccc2nc(-c3ccco3)c(-c3ccco3)nc2c1)N1CCOCC1	-0.62	i
CN(C(=O)CCNC(=O)Cn1cnc2ccccc2c1=O)c1ccccc1F	-0.86	i
CCn1c(Cc2ccccc2)nnc1SCC(=O)Nc1nnc(-c2ccccc2)s1	-0.63	i
O=C(Cc1ccsc1)NNC(=O)c1ccccc1O	-0.2	i
COc1ccc(/C=C2\SC(=O)N(CC(=O)NCCCn3ccnc3)C2=O)cc1	5.06	i
O=C(O)CSc1nnc(-c2ccncc2)n1Cc1ccccc1	-0.72	i
Cc1ccc(C)c(OCCC(=O)OCC(=O)N2CCN(c3ccccc3)CC2)c1	2.61	i
COc1ccc(OC)c(CNc2ccc3c(c2)nc(C)n3C)c1	-0.47	i
CN1C(=O)C(CC(=O)Nc2ccc(F)cc2)N(CCCc2ccccc2)C1=S (configuration not stated)	0.21	i
CC(C)C(NS(=O)(=O)c1cccs1)C(=O)NCc1ccccc1Cl (configuration not stated)	-1.07	i
Oc1ccc(C2Nc3cccc4cccc(c34)N2)cc1	0.43	i
Cc1cc(C)nc(SCc2ccc3nonc3c2)n1	-0.98	i
CC(Nc1ccnc2cc(Cl)ccc12)c1ccc(S(N)(=O)=O)cc1 (configuration not stated)	0.04	i
Cc1ccc(NC(=O)CCC(=O)NNC(=O)COc2ccccc2)cc1C	2.34	i
O=[N+]([O-])c1cccc(/C=C/C=N/Nc2nc(N3CCCCC3)nc(N3CCCCC3)n2)c1	-0.83	i
COc1ccc(CNC(=O)COc2cc(O)c3c(c2)OC(C)(C)CC3=O)c(OC)c1	0.77	i
Cc1cc(NC(=O)c2cccc(S(=O)(=O)Nc3cccc(C(=O)O)c3)c2)no1	-0.99	i
Cc1ccc(C)c(N2CCN(C(=O)c3ccc4nc(-c5ccco5)c(-c5ccco5)nc4c3)CC2)c1	-2.77	i
O=CN1CCN(c2c([N+](=O)[O-])c(=O)oc3ccccc23)CC1	-0.08	i
CC1(c2nnc(-c3cccc(Cl)c3)o2)CC(c2ccc(C#N)cc2)=NO1 (configuration not stated)	1.24	i
Cc1ccc(NC2=C/C(=N\S(=O)(=O)c3cccs3)c3ccccc3C2=O)c(C)c1	0.13	i
COc1ccc(C(=O)SC2=NCCS2)cc1OC	0.28	i
COCc1nnc(NC(=O)CCCOc2ccccc2OC)s1	1.38	i
Nc1sc(-c2ccccc2)cc1-c1n[nH]c(=S)n1C1CCCCC1	-0.64	i
Cc1ccccc1N1CCN(Cc2cc3c(cc2[N+](=O)[O-])OCO3)CC1	-0.97	i
COc1ccc(C(=O)NCC(=O)N/N=C/c2ccco2)cc1OC	0.92	i
CN1CCN(C(=O)CCC(=O)NCc2ccc(F)cc2)CC1	-0.71	i
CCCS(=O)(=O)N1CCCC(C(=O)Oc2ccccc2Cl)C1 (configuration not stated)	-0.45	i
COc1ccc(C2=NS(=O)(=O)N(C)C(C(=O)N(C)Cc3ccccc3)=C2)cc1	-1.82	i
Cc1cc(Nc2ccc3c(c2)OCCO3)n2ncnc2n1	-0.01	i
COC(=O)[C@H](Cc1ccccc1)NC(=O)NCc1ccccc1	-0.42	i
O=C(NCc1nnc(SCc2ccc(C(F)(F)F)cc2)n1-c1ccccc1)C12CC3CC(CC(C3)C1)C2	0.81	i
CC1=CC(C)=Nc2ccccc2N1	0.32	i
CC(C)(C)n1nc2c(c1NC(=O)c1cc3ccccc3o1)CSC2	3.78	i
COc1ccc(-c2nc(CN3CCCCC3CCc3ccccn3)c(C)o2)cc1 (configuration not stated)	-1.65	i
COc1ccccc1NC(=O)C1CCN(C(=O)c2ccc(C(C)(C)C)cc2)CC1	1.09	i
OCCSc1nc2ccccc2n1CCOc1ccccc1	1.35	i
O=C(c1ccc(F)cc1F)N1CCN(c2ncccn2)CC1	-0.15	i
CCN1C(=O)NC(c2cccnc2)C(C(=O)OC)=C1C (configuration not stated)	0.86	i
O=C(NC1CCCC1)C(c1ccccc1F)N(C(=O)c1csnn1)c1ccccc1 (configuration not stated)	-3.54	i
COCCCNC(=S)N(CCCO)Cc1cc2cc3c(cc2[nH]c1=O)OCCO3	0.02	i
O=C(O)C1C2C=CC(C3CC23)C1C(=O)N1CCc2ccccc21 (configuration not stated)	-0.13	i
CCn1cc(C(=O)OCC(=O)NCc2ccc3c(c2)OCO3)c(=O)c2ccc(C)nc21	0.53	i
O=C(CN1CCN(c2ccc(F)cc2)CC1)Nc1cc(C(F)(F)F)ccc1Cl	1.73	i
COc1ccc(Cc2nnc(N/N=C/c3ccc(Br)cc3)[nH]c2=O)cc1OC	1.62	i
O=C(NCc1ccccc1)C1=C[C@@H](C2CCCCC2)C[C@@H](OCc2ccc(CO)cc2)O1	-1.07	i
CCOC(=O)CC(NC(=O)CCc1c(C)nc2ncnn2c1C)c1ccc(OC(C)C)cc1 (configuration not stated)	-0.16	i
Cc1ccc(-c2nc3ncccc3o2)cc1NC(=O)c1cc2ccccc2o1	1.68	i
COc1ccc(CN2C(=O)c3ccccc3C2=O)cc1C(=O)O	-0.77	i
CCOC(=O)C1CSC(CC(=O)Nc2ccc(OC(F)(F)F)cc2)C(=O)N1 (configuration not stated)	-3.02	i
CC(=O)c1ccccc1OCc1ccc(C(=O)c2ccccc2)cc1	0.62	i

Continued:
molecule	KCNQ2 inh baseline	KCNQ2 inh
COc1cccc(Cn2c(=O)sc3ccccc3c2=O)c1	2.87	i
O=C(Nc1cccnc1)C1=NN(C2CCS(=O)(=O)C2)C(=O)CC1 (configuration not stated)	0.4	i
Cc1cccc(N=C2C(=O)Nc3c(Cl)cccc32)c1	0.16	i
CCN1CCN(CCCNC(=O)c2ccc(NC(=O)C3=C(C)OCCS3)cc2)CC1	2.58	i
CN(CCc1ccccn1)C(=O)c1ccc(OC(F)(F)F)cc1	0.26	i
COc1ccc(/C=C2\COc3ccccc3C2=O)c(OC)c1	0.84	i
Cc1cc(Cl)c(S(=O)(=O)Nc2ccc(S(=O)(=O)N3CCOCC3)cc2)cc1OCC(N)=O	0.3	i
O=C(Nc1ccc(Br)cc1)N1CCCCCC1	0.24	i
NC(=O)c1nsc(C(=O)N(c2cccc(F)c2)C(C(=O)NCc2ccccc2)c2ccc(O)cc2)c1N (configuration not stated)	-0.57	i
CCCCOCCCNCc1cccn1CCN1CCOCC1	0.32	i

Reprinted at random: 6 compounds from above, in no set order.
molecule	KCNQ2 inh baseline	KCNQ2 inh
CCCCOCCCNCc1cccn1CCN1CCOCC1	0.32	i
COc1ccc(/C=C2\COc3ccccc3C2=O)c(OC)c1	0.84	i
CN(CCc1ccccn1)C(=O)c1ccc(OC(F)(F)F)cc1	0.26	i
NC(=O)c1nsc(C(=O)N(c2cccc(F)c2)C(C(=O)NCc2ccccc2)c2ccc(O)cc2)c1N (configuration not stated)	-0.57	i
COc1cccc(Cn2c(=O)sc3ccccc3c2=O)c1	2.87	i
Cc1cccc(N=C2C(=O)Nc3c(Cl)cccc32)c1	0.16	i

The results go on.
molecule	KCNQ2 inh baseline	KCNQ2 inh
CCOc1ccccc1CN1CCN(Cc2nc3ccccc3s2)CC1CCO (configuration not stated)	-1.44	i
COc1ccc(-c2[nH]ncc2CN2CCC(OCc3ccccn3)CC2)c(F)c1	1.93	i
Cc1ccc(C(=O)CCNc2cccc(Br)c2)o1	0.67	i
O=C(c1ccccc1)N1CCCCC(S(=O)(=O)c2ccc3ccccc3c2)C1=O (configuration not stated)	-1.22	i
Cc1oc2c(CN(C)C)c(O)ccc2c(=O)c1-c1cscn1	1.02	i
O=C(CSc1ncnc2c1nnn2Cc1ccccc1)NC1CCCC1	-0.63	i
N#C/C(=C/c1ccc(Oc2ccc([N+](=O)[O-])cn2)cc1)C(=O)N1CCOCC1	1.68	i
O=C(NC(=S)Nc1ccccc1Cl)c1cncc(C#Cc2ccccc2)c1	1.22	i
c1ccc(OCCN2CCOCC2)cc1	-0.15	i
Cc1cc(C)c2c(C(C)(C)C)nn(-c3ccccc3)c2n1	-0.81	i
CCCn1c(SCC(=O)c2cc(C)c(C)cc2C)n[nH]c1=O	1.41	i
Cc1nc(C(C)N(C)Cc2nc(-c3ccc4c(c3)OCO4)no2)c(C)s1 (configuration not stated)	0.11	i
CC(C)C(NS(=O)(=O)c1cccc2nsnc12)C(=O)NC1CCCCC1 (configuration not stated)	0.43	i
O=C(COc1ccccc1C(=O)O)Nc1nc2ccc([N+](=O)[O-])cc2s1	0.09	i
COCC(O)CSc1c([N+](=O)[O-])nc(C)n1Cc1ccc(OC)c([N+](=O)[O-])c1 (configuration not stated)	-1.55	i
COCCCNC(=O)Cn1cnc2sc(C)c(S(=O)(=O)N3CCN(c4ccccc4OC)CC3)c2c1=O	-0.11	i
COc1cc2c(cc1OC)C(NNC(=O)c1ccc(Br)o1)=NC(C)(C)C2	0.74	i
Cc1cc(C)c(NC(=O)Cn2nnc(C(=O)NCCc3ccccc3)c2N)c(C)c1	-1.97	i
Cc1cccc(NC(=O)c2cc(S(=O)(=O)N3CCCC3)cn2C)c1	1.08	i
Cc1nc(Nc2cnc(/C=C/c3cc(C(=O)Nc4cccc(C(F)(F)F)c4)ccc3C)cn2)cc(N2CCNCC2)n1	5.51	i
C#CC(C)(CC)NC(=O)Cn1nnc(-c2cccc(C(F)(F)F)c2)n1 (configuration not stated)	0.03	i
Cc1ccn2c(C=O)c(-c3ccc(F)cc3)c(C=O)c2c1	1.47	i
Cc1ccc(N(C(=O)c2csnn2)C(C(=O)NC(C)(C)C)c2cccs2)cc1 (configuration not stated)	0.08	i
CCOc1ccc(NC(=O)CCN2C(=O)c3ccccc3C2=O)cc1	-0.92	i
CC(C)n1c(SCc2cc(=O)[nH]c3ccccc23)nc2c1c(=O)n(C)c(=O)n2C	-2.02	i
CSc1ccc(CNC(=O)c2ccc(NC(=O)C3=CSCCO3)cc2)cc1	0.02	i
O=C(NCCc1ccccc1F)C1CCC(=O)N(Cc2ccc(Cl)cc2)C1 (configuration not stated)	1.08	i
Fc1ccccc1CNc1ncnc2sccc12	1.62	i
COc1cc(C(Nc2ccc3c(c2)OCO3)C(=O)NC2CCCCC2)cc(OC)c1OC (configuration not stated)	-1.05	i
Cc1ccccc1N1CCN(Cc2c(C#N)c3ccccc3n2C)CC1	-0.1	i
CCN(CC)c1ccc(C=C(c2nnnn2-c2ccc(C)cc2)c2nnnn2-c2ccc(C)cc2)cc1	0.2	i
NC(=O)COC(=O)CNC(=O)c1ccc(Cl)cc1	-0.62	i
O=C(CNC(=O)c1cccs1)N/N=C/c1c(F)cccc1Cl	0.13	i
O=C(c1ccc(CS(=O)(=O)Cc2ccc(Cl)cc2)o1)N1CCCC1	1.13	i
CCC(=O)N1CCC2(CC1)Oc1ccc(F)cc1C(=O)C21CC(c2ccccc2)=NO1 (configuration not stated)	0.02	i

Bioassay records: PubChem, Johns Hopkins Ion Channel Center
